ALR inh: inhibitors of human sulfhydryl oxidase ALR; purified ALR, DTT oxidation, H2O2 HRP-luminol luminescence; inhibition, % (concentration not given with the values); 290,000 compounds, 3.8% hits; AID 485317;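 active = mean and each replicate at 75% or more; inconclusive = only one of the two met; inactive = neither met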;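 note: stock transfer was 7.5 nL into about 7.5 µL; 0% = neutral wells and 100% = wells with inactivated enzyme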
Target sequence (P55789 whole entry, looked up): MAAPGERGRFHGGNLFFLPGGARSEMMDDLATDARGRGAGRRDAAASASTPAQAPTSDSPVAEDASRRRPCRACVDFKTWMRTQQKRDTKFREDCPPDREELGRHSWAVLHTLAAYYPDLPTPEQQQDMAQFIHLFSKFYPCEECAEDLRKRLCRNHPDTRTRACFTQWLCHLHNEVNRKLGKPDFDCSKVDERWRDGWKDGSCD
Beta2AR agonist: agonists of human beta-2 adrenergic receptor inducing internalization; response, % (concentration not given with the values); AID 504454; P07550; Am2.2-beta2AR cells, FAP receptor internalization, flow cytometry; reference of the scale not given here; 340,000 compounds, 0.43% hits;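 active = response above a set limit, near 3 SD of response in nonfluorescent compounds, cut at about 42% in these data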;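 note: stock transfer was 100 nL into about 11 µL; a reference agonist was the positive control; negative values mostly stem from fluorescent compounds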
Target sequence (P07550 whole entry, looked up): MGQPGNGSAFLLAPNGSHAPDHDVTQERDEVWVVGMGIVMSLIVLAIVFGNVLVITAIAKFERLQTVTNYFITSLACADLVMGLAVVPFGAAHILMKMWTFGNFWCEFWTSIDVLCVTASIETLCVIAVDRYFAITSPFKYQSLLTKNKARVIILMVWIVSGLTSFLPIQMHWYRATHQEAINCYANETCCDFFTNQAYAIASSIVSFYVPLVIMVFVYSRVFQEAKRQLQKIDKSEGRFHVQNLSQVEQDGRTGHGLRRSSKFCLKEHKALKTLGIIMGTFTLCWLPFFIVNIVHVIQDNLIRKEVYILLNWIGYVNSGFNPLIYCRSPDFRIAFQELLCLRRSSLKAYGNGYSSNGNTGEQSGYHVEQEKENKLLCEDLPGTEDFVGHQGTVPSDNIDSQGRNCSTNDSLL
LANA-H2A inh: blocks KSHV LANA binding to histone H2A/H2B. cell-free LANA-H2A/H2B peptide, fluorescence polarization. inhibition, % (no concentration beside the values). 320,000 compounds, 0.6% hits. AID 2629; in the data active = inhibition mostly above about 10%, no sharp cut-off; inactive = mostly below about 6.7%;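 note: stock transfer was 7.5 nL into about 10 µL; 0% = median of vehicle wells and 100% = median of positive control wells; one replicate is shown; the record names a cut of 25% in any replicate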
RanGTP-Impb inh: disruptors of Ran-importin-beta complex formation – biochemical, FRET, CFP-Ran, YFP-importin-beta, homogeneous, primary screen; cell-free CFP-Ran/YFP-importin-beta FRET ratio; inhibition, % (test concentration not listed); 300,000 compounds, 1.1% hits; AID 2216;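 active = most replicates above 15%; inconclusive = exactly half above 15%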;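 note: 0% = DMSO wells and 100% = Ran loaded with GDP instead of GTP; wells of about 40 µL received 100 nL stock; the first replicate is given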
Calb FLC: affects C. albicans growth with fluconazole; growth inhibition, % (concentration not given with the values); AID 1979; 300,000 compounds, 0.57% hits; C. albicans CaCi-2 (fluconazole-resistant clinical isolate) + fluconazole, Alamar Blue growth, 48 h;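 active = most replicates above 75%; inconclusive = exactly half above 75%; inactive = most below 75%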;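 note: all wells also contain fluconazole at 8 µg/ml as a sub-toxic cotreatment; 0% = median of DMSO wells and 100% = median of geldanamycin control wells; wells of about 8 µL received 7.5 nL stock; the first replicate is given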
Vif TR-FRET: HIV-1 Vif–A3G interaction blockers – biochemical, TR-FRET, GST-Vif 1-94, biotin-A3G peptide, dose response retest, primary screen (AID 1117319); TR-FRET GST-Vif / biotin-A3G peptide binding; higher % means a stronger effect; test concentration not given here; strong numbers were not always called active; one-dose inhibition, %; IC50 in µM for titrated hits; 260,000 compounds, 0.57% hits;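 active = above the screen mean plus three standard deviations and confirmed in dose response; inconclusive = results disagree or hit not tested in dose response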;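 note: Vif residues 1-94 fused to GST binding biotinylated APOBEC3G peptide 110-148; 0% = full assay without inhibitor and 100% = GST in place of GST-Vif; retest series ran down from 100 µM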
HNF4A DNA FP: change in binding of human HNF4 alpha to DNA | P41235 | HNF4a-FITC DNA binding, fluorescence polarization, 1 h | activity change, % at 10 µM | 360,000 compounds, 0.3% hits; in the data active = activity change above about 30%, passing the limit was not always enough;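 note: controls were the assay level and a saturating level of protein; the project sought stronger binding though the title names inhibitors; some compounds called inactive have numbers as strong as hits; positive values seem to mean higher polarization but the record does not say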
An asterisk follows results filed as active; ? = inconclusive; nt = not tested or not shown.

Under each structure – ALR inh, Beta2AR agonist, LANA-H2A inh, RanGTP-Impb inh, Calb FLC, Vif TR-FRET, HNF4A DNA FP
> COc1cccc(/C(O)=C2/C(=O)C(=O)N(Cc3ccco3)C2c2ccncc2)c1 (centres undefined)
→ 2.3, 7.7, -10.7, -0.5, -8.2, 23.1%, -6.0
> COCC(C)n1c(COc2ccccc2F)nnc1SCc1c(C)noc1C (centres undefined)
→ -2.9, 16.2, -1.9, -2.5, -2.4, -3.1%, 0.4
> CC(=O)Nc1nc(C)c(S(N)(=O)=O)s1
→ -10.4, -3.6, 6.1, 2.2, -3.1, -2.5%, -1.6
> CC(C)(C)c1ccc(CNC(=O)c2ccc3c(c2)NC(=O)CO3)cc1
→ -5.2, -9.0, -3.5, -2.4, -14.5, ?, -0.8
> NC(=O)COC(=O)c1cccc(NS(=O)(=O)/C=C/c2ccccc2)c1
→ -3.1, -2.8, -2.7, 3.7, 1.6, nt, 1.6
> Nc1nnc(SCc2nc3scc(-c4ccccc4)c3c(=O)[nH]2)s1
→ -5.1, -39.3, -0.8, 0.4, -0.5, -2.5%, 45.2*
> O=c1c2ccccc2nc(N2CCN(c3ccccc3)CC2)n1Cc1ccccc1
→ 1.6, -9.4, -1.6, -0.6, 23.2, -4.4%, 4.7
> O=C(N[C@@H](Cc1ccccc1)C(=O)NCc1ccc(F)cc1)C1CCNCC1
→ -0.9, -7.0, 0.4, -2.9, nt, nt, 1.4
> O=C(CCOc1ccccc1F)N1CCN(c2ccccc2O)CC1
→ -2.4, -2.8, 0.3, -4.7, 14.7, nt, 4.2
> O=C(Nc1cccc(F)c1)C1CCN(C(=O)Cc2ccccc2)CC1
→ nt, -2.3, 7.4, 3.9, -4.8, 7.5%, -3.8
> CCCCN(N=Nc1nonc1OC)c1nonc1OC
→ -3.6, -0.9, -0.3, 1.9, -15.7, -0.2%, -1.4
> Cc1cc(C)c(NC(=O)Cn2nnc(C(=O)NCc3ccco3)c2N)c(C)c1
→ nt, -3.0, -2.0, -3.2, -20.7, 9.8%, -0.5
> CC(C)c1ccc(NC2CCCN(C(=O)c3ccnn3C)C2)cc1 (centres undefined)
→ ?, 5.2, 1.8, 4.2, -1.1, nt, 3.2
> O=C1C2C3C=CC(C3)C2C(=O)N1Nc1ccccc1 (centres undefined)
→ -3.8, 0.1, -0.4, 2.2, -2.3, -0.8%, -1.3
> COc1ccc(N2CC(C(=O)Nc3nnc(SCC(=O)N4CCCC4)s3)CC2=O)cc1 (centres undefined)
→ -0.5, -2.1, -0.9, 9.1, -3.4, nt, -1.9
> COc1ccc(-c2noc(N3CCC(C(=O)Nc4ccc(OC)cc4OC)CC3)n2)cc1
→ -8.3, -6.1, -3.0, 0.7, -7.4, nt, -2.7
> CCN(C(=O)COC(=O)CSc1ccc(F)cc1)c1c(N)n(Cc2ccccc2)c(=O)[nH]c1=O
→ 1.4, -3.1, -12.6, nt, nt, -3.2%, 1.0
> Cc1ccc(-c2csc(C(C#N)=C3CCCC3)n2)cc1
→ 5.7, -1.0, 0.4, 4.1, ?, 15.2%, 0.6
> CCCC(=O)NC(=S)Nc1cccc(Cl)c1N1CCCCC1
→ 0.9, -1.6, 1.7, 8.6, -9.2, ?, -4.8
> Brc1ccc(NCc2nnc3n2CCCCC3)cc1
→ 57.5, -14.9, 4.3, 2.3, 2.6, 29.5%, 2.7
> CC(C)NC(=O)C1CCN(C2CCN(Cc3nc4ccccc4s3)CC2)CC1
→ 0.0, -1.9, -5.6, 0.1, 6.9, 1.5%, 2.3
> CC(=O)c1c(C)[nH]c(C(=O)COC(=O)C2CC2)c1C
→ -3.7, -3.5, -1.0, 2.5, 8.0, 7.6%, 1.2
> CS(=O)(=O)c1ccc2nc(NC(=O)CN3CCCCCC3)sc2c1
→ 27.2, 4.8, -5.0, 1.6, 11.9, -0.3%, 1.0
> O=C1CC(C(=O)NC2CCCCC2)C(c2ccccc2)O1 (centres undefined)
→ 5.7, 4.4, -1.5, 1.4, -7.5, 3.1%, -3.4
> O=C(CSc1nnc(-c2ccoc2)o1)N1CCOCC1
→ -0.9, -2.2, -1.4, ?, -14.6, -4.8%, 3.5
> CC(=O)c1ccc(NC(=O)C(C)OC(=O)c2cccc(-n3cnnn3)c2)cc1 (centres undefined)
→ 3.2, -6.8, 1.6, 5.2, 0.5, -0.6%, -0.2
> Cc1nn(-c2ccccc2)c(Cl)c1/C=N/O
→ 1.5, 1.0, 6.1, -1.9, 0.4, 4.1%, -1.8
> CC(C)c1ccc(C(=O)Nc2ccc(N3CCOCC3)cc2)cc1
→ -7.8, 13.0, 5.2, -3.6, 4.1, nt, 4.2
> C#CCOC(=O)Nc1ccc(OCC(F)(F)F)nc1
→ -1.1, -9.0, -1.6, -1.2, -28.4, 0.5%, -0.3
> CCOC(=O)/C=C1\CC(C(=O)OCC)Oc2ccccc21 (centres undefined)
→ nt, -8.7, nt, nt, nt, 1.6%, 1.2
> C=C(C)CC(NCCc1ccccc1)c1ccco1 (centres undefined)
→ nt, 0.8, nt, -0.8, -0.3, 1.4%, -2.3
> S=C1NCCOCCOCCNC(=S)N2CCOCCOCCN1CCOCCOCC2
→ -2.0, 11.8, 8.5, ?, 3.1, 3.4%, 1.6
> CCN(C(=O)COC(=O)/C=C/c1c(C)nn(-c2ccccc2)c1C)C1CCS(=O)(=O)C1 (centres undefined)
→ 0.2, 0.3, 3.1, -0.5, -0.9, 28.2%, 1.7
> COc1ccccc1Nc1nnc(SCc2nnc(-c3cc(OC)c(OC)c(OC)c3)o2)s1
→ -6.4, -7.3, -3.6, 4.8, -2.2, nt, 3.0
> CNC(=S)N/N=C/c1cn(CCOc2ccccc2OC)c2ccccc12
→ 17.2, 5.3, -4.4, 3.1, -4.6, nt, -0.7
> Cc1ccc(-c2nc(C#N)c(NCc3ccco3)o2)cc1
→ nt, 4.7, nt, 2.1, 23.7, -2.4%, 1.1
> O=C(c1ccc(OCc2cn3ccccc3n2)cc1)N1CCN(S(=O)(=O)c2ccccc2F)CC1
→ nt, 6.0, nt, nt, nt, -5.5%, -4.5
> COCC1CCN(Cc2cn(Cc3ccccc3)nc2-c2cc3ccccc3o2)CC1
→ -7.3, -0.4, 2.0, -0.3, -0.3, 4.2%, 2.6
> O=C(CCn1nnnc1CN1CCOCC1)N1CCC(c2ccccc2F)C1 (centres undefined)
→ 0.0, -1.1, -2.7, 1.0, -7.0, 1.8%, 1.5
> Clc1ccc(-c2nnc(SCc3nc(-c4ccccc4)no3)o2)cc1
→ 7.6, -2.6, -1.4, 1.6, -9.5, 11.7%, 0.3
> COc1ccc(-n2nc(C(=O)NCC(=O)NCCCN3CCN(C)CC3)c3ccccc3c2=O)cc1
→ -1.5, -8.2, 3.3, 1.6, 2.6, nt, 0.2
> CCOC(=O)C1CCN(Cc2cccc(Oc3ccccc3)c2)CC1
→ -0.5, -2.0, 1.8, ?, -2.3, -3.0%, -4.1
> COc1ccc(NC(=O)c2ccc(COCC(F)(F)C(F)F)cc2)cc1OC
→ -6.9, -4.7, -2.1, 8.5, -11.7, nt, -0.4
> CCn1cc(CN2CCC(n3nccc3NC(=O)CCc3ccccc3)CC2)cn1
→ -5.9, 1.9, 1.2, -0.4, -0.7, nt, 0.3
> CCCC1(c2ccccc2)NC(=O)N(CC(=O)NCC2COc3ccccc3O2)C1=O (centres undefined)
→ 1.7, -0.4, 6.9, nt, nt, -10.7%, -3.6
> CN(CCc1ccccn1)C(=O)CCc1nnc(CCCc2ccccc2)o1
→ nt, -6.5, -7.5, -6.6, -15.9, -2.5%, 2.2
> COc1ccc(S(=O)(=O)N2CCCC2)cc1C(=O)N1CCCCC1
→ -3.1, -0.8, -1.9, -5.1, -10.3, nt, 3.6
> CN=C1S/C(=C/c2cn(CC(=O)OC)c3ccccc23)C(=O)N1C
→ -12.7, 9.2, 0.9, 2.3, -0.3, -4.1%, 3.2
> CC(C)NC(=O)N(C)C[C@H]1Oc2ccc(NC(=O)c3ccncc3)cc2C(=O)N([C@H](C)CO)C[C@@H]1C
→ -5.5, 5.3, -3.4, nt, nt, nt, 2.5
> COc1ccccc1OCCn1cc(C#N)c2ccccc21
→ -13.2, -6.6, 0.1, ?, 0.2, -13.6%, 1.6
> Brc1ccc(C=Nc2ccc3c(c2)OCCOCCOCCO3)s1
→ 89.1*, -0.5, -9.0, 7.9, ?, nt, -3.6
> COc1ccc(Nc2nc(N)nc(CN3CCC(Cc4ccccc4)CC3)n2)cc1
→ -15.4, 1.9, 3.5, ?, 14.2, 5.6%, 0.3
> O=C(CCN1C(=O)/C(=C\c2ccccc2)SC1=S)NCCCN1CCOCC1
→ 13.3, -17.6, -6.9, ?, 17.9, 7.3%, -0.1
> CCN(CC)CCn1c(NCc2ccccn2)nc2ccccc21
→ 5.3, -2.0, 1.7, 5.4, -2.8, -0.8%, 0.9
> O=C(COC(=O)c1ccc2ccccc2n1)c1ccccc1
→ 1.7, 5.8, -491.3, -2.6, -4.0, -1.4%, 3.5
> O=C(c1ccccc1)c1sc(N2CCCCCC2)nc1-c1ccccc1
→ -31.6, 3.4, 1.6, -4.2, 2.7, -2.6%, 0.8
> COC(=O)c1cc(OC)c(OC)cc1NC(=O)c1ccc(OC)c(OC)c1
→ -7.2, 26.5, 1.4, 2.2, 4.7, -13.1%, -0.7
> COc1ccc(NS(=O)(=O)c2ccc3oc(SC4CCOC4=O)nc3c2)cc1 (centres undefined)
→ 5.2, 5.5, -3.4, 2.5, -19.1, 1.0%, 0.0
> Cc1nn(-c2ccccc2)c(C)c1C(=O)OC/C(O)=C(\C#N)c1nc2ccccc2[nH]1
→ -58.0, 23.1, 3.0, 0.6, 81.7*, 27.1%, 6.5
> COc1ccc(/C=C2\SC(=O)N(CCNC(=O)Cn3cnnn3)C2=O)cc1
→ -7.5, -1.1, 2.8, -0.7, 26.0, 7.5%, -1.3

Going on with the list:
Under each structure – ALR inh, Beta2AR agonist, LANA-H2A inh, RanGTP-Impb inh, Calb FLC, Vif TR-FRET, HNF4A DNA FP
> O=C(O)CSc1cccc[n+]1[O-]
→ 1.3, -0.3, 4.8, -2.0, -12.1, 3.6%, -2.9
> Cc1ccc(S(=O)(=O)NC(C)(C)CSc2nncn2N)cc1
→ -8.1, 1.3, -1.0, 3.5, 17.2, 4.0%, 0.0
> O=S(=O)(Nc1cc(Sc2cccc3cccnc23)c(O)c2ccccc12)c1ccccc1
→ nt, nt, nt, -1.1, -33.3, 29.2%, nt
> Cn1nc(C(=O)Nc2cccc(C(F)(F)F)c2)ccc1=O
→ nt, -6.6, 1.5, nt, nt, -2.4%, 0.8
> Nc1cc(=O)[nH]c(SCCSc2cc(Cl)ccc2Cl)n1
→ 24.9, 4.8, 0.7, -1.3, 0.0, 2.5%, 0.5
> O=c1c2ccccc2nc(SCc2ccccc2)n1Cc1ccco1
→ -0.4, 2.5, 1.9, 3.5, 20.4, -10.1%, 1.8

2 successive compounds out of the list so far, for reference:
Under each structure – ALR inh, Beta2AR agonist, LANA-H2A inh, RanGTP-Impb inh, Calb FLC, Vif TR-FRET, HNF4A DNA FP
> COc1cccc(/C(O)=C2/C(=O)C(=O)N(Cc3ccco3)C2c2ccncc2)c1 (centres undefined)
→ 2.3, 7.7, -10.7, -0.5, -8.2, 23.1%, -6.0
> COCC(C)n1c(COc2ccccc2F)nnc1SCc1c(C)noc1C (centres undefined)
→ -2.9, 16.2, -1.9, -2.5, -2.4, -3.1%, 0.4
